From PubChem
CtBP-E1A inh = CtBP/E1A binding inhibition | AlphaScreen GST-E1A/His-CtBP binding, 1536-well; active compounds read low; control for the full effect not named in the record | activity change, % (no concentration beside the values) | actives 0.49% (n = 340,000) | AID 651724; in the data active means activity change below about -65%; inconclusive means about -30% to -65%; inactive means above about -30%; note: % is set by controls: 0 for no effect and ±100 for the full control effect
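Steps: dispense buffer (Tris pH 8.0, NaCl 300 mM, TCEP 1 mM, BSA, Tween 20); add 5X protein mix (GST-E1A, His-CtBP, 125 nM each); pin 23 nL compound; 2 h at 37 °C, dark; add 5X beads (50 ug/mL); 1 h; read.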
ClpP mod = qHTS Assay for Activators of ClpP. ATP-dependent Clp protease proteolytic subunit (Bacillus subtilis (strain 168)), P80244. actives 1.9% (n = 340,000). purified B. subtilis ClpP, FRET peptide cleavage, 20 min. Potency, µM (titrated, usually from 57.5 µM), for the others: top-dose activity change, negative = active; active = well fitted falling curve with a large enough effect; inconclusive = small, poorly fitted or top-dose-only effect; inactive = no such curve, though single readings can be large or run the other way; note: potency is the fitted concentration of half-maximal effect; the source files actives as falling curves though it sought activators and does not explain the sign; nearly all actives have a fitted effect of over 65% in size; many hits overshoot -100%
Target sequence (P80244 whole entry, looked up): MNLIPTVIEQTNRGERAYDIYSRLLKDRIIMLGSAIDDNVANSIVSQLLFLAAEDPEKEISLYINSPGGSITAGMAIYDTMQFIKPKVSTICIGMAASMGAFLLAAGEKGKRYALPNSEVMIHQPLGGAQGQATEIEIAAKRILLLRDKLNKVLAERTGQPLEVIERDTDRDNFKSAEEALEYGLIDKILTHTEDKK
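Purified B. subtilis ClpP, 10 microg/mL final in Tris/HCl pH8 with KCl, BSA, glycerol and Tween-20, cleaved an Abz/nitrotyrosine-quenched decapeptide. Fluorescence (ex 320, em 430) was read at 0 and 20 min at room temperature. Delta was normalized to 5.8 microM ADEP and DMSO/no-enzyme controls.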
* hit, by the source's call; ? = inconclusive.

SMILES	CtBP-E1A inh	ClpP mod
Nc1ncnc2c1ncn2[C@@H]1O[C@H](C(=O)NCCc2ccc(F)cc2)[C@@H](O)[C@H]1O	-0.9	1.5%
Cc1cc(C(=O)N2CCCC(C)(C(=O)NS(=O)(=O)C3CC3)C2)nn1C(C)(C)C (stereo unspecified)	5.2	2.8%
CCOC(=O)C1CCCN(C(=O)c2ccc3c(c2)C(C)(C)CCC3(C)C)CC1 (stereo unspecified)	0.9	1.0%
COc1ccc(Cl)cc1-c1cc(C(=O)NCc2ccc(C(F)(F)F)cc2)[nH]n1	0.1	-14.3%
O=NN(C(=O)NC1CCC(C(=O)O)CC1)C1CCC(C(=O)O)CC1 (stereo unspecified)	2.1	1.0%
CCCS(=O)(=O)NC(=O)C1(C)CCCN(C(=O)c2cc(OC)ccc2Br)C1 (stereo unspecified)	10.0	-0.4%
c1ccc(-c2cc3nc(NCc4ccc5c(c4)OCO5)ccn3n2)cc1	-19.8	4.5%
CCc1ccc([C@@H]2CC(=O)[C@@H]3CN(S(=O)(=O)c4ccc(C)cc4)[C@H](c4ccc(Cl)cc4)C[C@@H]3N2S(=O)(=O)c2ccc(C)cc2)cc1	0.5	-0.5%
CCCC(=O)N1CCC1(C)C(=O)Nc1cccc(F)c1 (stereo unspecified)	5.8	-0.4%
CCc1nc2ccc(C(=O)Nc3ccc4c(c3)OCC(=O)N4)cn2c1N(C)C(=O)C1CCCCC1	-8.1	-0.4%
COc1ccc(CCC(=O)N2c3ccccc3N=C(c3ccc(C(F)(F)F)cc3)C2C(=O)NC(C)(C)C)cc1 (stereo unspecified)	0.0	?
Nc1c(-c2ccccc2)nc2ncccn12	3.2	-1.3%
COC(=O)c1ccc(CNC(=O)CC[C@H]2O[C@@H](n3cc(C)c(=O)[nH]c3=O)C[C@@H]2O)cc1	4.5	0.4%
Cc1ccc(-c2nc3ccc(Br)cn3c2Cc2ccsc2)cc1	-2.2	-2.8%
Cn1ccc2c(-c3ccccc3F)cc3c(c21)C1CCC3C1 (stereo unspecified)	-4.6	5.0%
CCCCn1nnnc1C(c1cc2ccccc2o1)N1CCCCC1 (stereo unspecified)	7.7	-2.0%
CCOC1=C2CN(S(=O)(=O)c3ccc(C)cc3)C(c3cccc(Cl)c3)CC2NC(c2ccccc2)C1 (stereo unspecified)	5.9	-3.3%
CC(=O)Nc1cc(-c2cccc(C(=O)NCCO)c2)cn2c(-c3ccc(F)c(Cl)c3)cnc12	0.4	2.5%
CC(C)C[C@H]1CNC(=S)N1C[C@H]1CCCN1C[C@H](Cc1ccc(O)cc1)N1C[C@H](Cc2ccc(O)cc2)N(CCc2ccccc2)C1=S	-7.2	-2.9%
CC(C)(C)S(=O)N1Cc2cc(C(=O)N[C@@H]3CCN(Cc4ccccc4)C3)nc(-c3cccc(-c4cc5ccccc5o4)c3)c2[C@@H]1CCO (stereo partly specified)	-12.4	4.7%
CC(C)CC1OC(C(C)C)Cc2[nH]c(=S)[nH]c(=O)c21 (stereo unspecified)	2.1	1.6%
COC(=O)C[C@H]1C=C[C@@H](NC(=O)Cc2cccnc2)[C@@H](CO)O1	0.0	-1.1%
FC(F)(F)c1cccc(-c2cncc(N3CCN(CCN4CCCC4)CC3)n2)c1	-1.1	-9.7%
CCCCCCn1cc(CN2CC(N3CCN(Cc4cccc(C)c4)CC3)CS2(=O)=O)nn1 (stereo unspecified)	2.9	-0.7%
Cc1ccccc1CN1C(=O)C(C)Sc2ccc(-c3ccco3)cc21 (stereo unspecified)	-1.3	-7.2%

Laid out differently: entries from further up.
Values in the order – CtBP-E1A inh, ClpP mod
> CCCC(=O)N1CCC1(C)C(=O)Nc1cccc(F)c1 (stereo unspecified)
  5.8, -0.4%
> CCc1nc2ccc(C(=O)Nc3ccc4c(c3)OCC(=O)N4)cn2c1N(C)C(=O)C1CCCCC1
  -8.1, -0.4%
> COc1ccc(CCC(=O)N2c3ccccc3N=C(c3ccc(C(F)(F)F)cc3)C2C(=O)NC(C)(C)C)cc1 (stereo unspecified)
  0.0, ?
> Nc1c(-c2ccccc2)nc2ncccn12
  3.2, -1.3%

(next part)
SMILES	CtBP-E1A inh	ClpP mod
CC(=O)Nc1ccc(C(=O)N2CCCC(c3cc(C(=O)NCc4cccnc4)no3)C2)cc1 (stereo unspecified)	1.0	2.0%
CCOC(=O)C1=C[C@@H](C(C)C)N(S(=O)(=O)c2ccc([N+](=O)[O-])cc2)[C@H]1c1ccccc1	?	-0.8%
COc1ncccc1C(=O)Nc1c(-c2ccccc2)[nH][nH]c1=O	-3.0	0.6%
CCC(C(=O)Nc1c(C)cccc1C)n1c(-c2cc(C)cs2)nc2ccccc21 (stereo unspecified)	3.9	4.6%
OC[C@H]1O[C@@H](c2nc3ccc(-c4nc(-c5cccs5)no4)cc3[nH]2)C[C@@H]1O	?	-27.1%
CC(=O)NC(c1cccc(F)c1)c1nc(-c2cccc(C(=O)O)c2)cs1 (stereo unspecified)	-27.3	-0.6%
CCc1nc2c(OCC(=O)C(C)(C)C)cccn2c1N(C=O)CC(=O)N(C)C	-0.4	-10.2%
O=C(CC[C@H]1O[C@@H](n2ccc(=O)[nH]c2=O)[C@H](O)[C@@H]1O)N[C@H](Cc1ccccc1)C(=O)NCC1CCCO1 (stereo partly specified)	1.5	0.9%
OC[C@@H]1CN(Cc2cccs2)C[C@H](n2cnc3c(N4CCOCC4)ncnc32)O1	1.8	0.6%
CCCC(=O)N1CCC1(C)C(=O)Nc1ncc(C(=O)OC)s1 (stereo unspecified)	2.5	-0.6%
O=C(N[C@H]1CC[C@@H](CCNS(=O)(=O)c2ccccc2Cl)O[C@@H]1CO)c1ccccc1	1.8	0.1%
COC(=O)[C@]12CCCCC=C1N(Cc1ccccc1)C(=O)[C@H](CC(=O)NCc1cccc(C(F)(F)F)c1)C2	-1.3	-1.0%
Cc1cc(C(=O)N2CCC2(C)C(=O)NS(=O)(=O)c2ccc(Cl)cc2)nn1C (stereo unspecified)	8.9	0.9%
CNc1cncc(-c2cccc(OC)c2F)n1	1.1	4.5%
O=C(C[C@@H]1C=C[C@@H](NC(=O)Nc2cccc(F)c2)[C@@H](CO)O1)NCC1CCCCC1	13.9	1.8%
CCOC(=O)[C@]12CCCC=C1N(CCC1=CCCCC1)C(=O)[C@H](CC(=O)N1CCSCC1)C2	-12.5	1.0%
CCCCC[C@@H](C)N1C[C@@H](COCc2ccccc2)Oc2cc(N3CC[C@@H](O)C3)ccc2S1(=O)=O	-19.5	-11.0%
COc1ccc(Cc2c(C(C)(C)C)nc3ccc(C)cn23)c(C)c1	0.6	-18.0%
Cc1c(C(=O)NCc2cccc(C(F)(F)F)c2)sc(=O)n1Cc1ccccc1F	4.0	0.2%
CCNC(=O)C1(C)CCN1CCC(=O)c1ccc(Br)cc1 (stereo unspecified)	2.1	0.3%
COc1ccc(S(=O)(=O)NC(=O)C2(C)CCN2C(=O)Cc2ccccc2Cl)cc1 (stereo unspecified)	14.0	0.0%
CC(=O)Nc1cncc(-c2ccc(CN(C)C)cc2)n1	-3.8	5.2%
O=C(NC(c1ccc(-c2ccccc2)cc1)c1cnccn1)C1CCN(Cc2cccc(C(F)(F)F)c2)CC1 (stereo unspecified)	-9.6	0.1%
COCCNC(=O)C1(C)CCCN(C(=O)c2ccccc2)C1 (stereo unspecified)	2.2	-1.2%
FC(F)(F)c1cc(Cl)c2nc(-c3ccccc3)c(Cc3ccccc3)n2c1	9.6	-13.2%
(cont.)
SMILES	CtBP-E1A inh	ClpP mod
COc1ccc(CN2C(=O)CN(S(C)(=O)=O)CC2(C)C(=O)Nc2c(C)cccc2C)cc1 (stereo unspecified)	-12.0	-1.9%
O=C(C(O)c1ccc(Br)cc1)N1CCC(Nc2ccc3[nH]ncc3c2)CC1 (stereo unspecified)	?	5.4%
CC(=O)c1cccc(NC(=O)C2Cc3c(-c4ccc5c(c4)OCO5)ccnc3O2)c1 (stereo unspecified)	-5.4	4.5%
CCCCCc1c(CC)ncn1CCc1ccccc1OC	?	-2.5%
CC1(C(=O)Nc2ccc3c(c2)OCO3)CCN1C(=O)CCC1CCCC1 (stereo unspecified)	-3.7	0.6%
O=C1NC[C@@H](CCCCN2C[C@H](Cc3ccc(O)cc3)N(CCc3ccccc3)C(=O)C2=O)N(CC2CCCCC2)C1=O	5.1	-1.4%
O=C1NC[C@H](CCCCN2C[C@H](Cc3ccccc3)N(CCC3CCCCC3)C(=O)C2=O)N(CCc2ccc(O)cc2)C1=O	-12.0	-2.0%
Cc1ccccc1Cn1c(C)c(C(=O)NCc2cccc(C(F)(F)F)c2)sc1=O	7.8	0.9%
CCOC(=O)[C@]12CCCC=C1N(Cc1ccc(Cl)cc1Cl)C(=O)[C@H](CC(=O)NCc1ccc(OC)c(OC)c1)C2	3.1	4.1%
CCCC(=O)N1CCC1(C)C(=O)Nc1ccccn1 (stereo unspecified)	5.8	0.4%
CCCCn1nnnc1C(c1ccccc1)N1CCN(CC)CC1 (stereo unspecified)	2.8	0.7%
COCCNC(=O)C1(C)CCN(C(=O)c2ccc3c(c2)C(C)(C)CCC3(C)C)C1 (stereo unspecified)	6.3	2.1%
c1ccc(CCNc2ccc3ncc(-c4cccc5ccccc45)n3n2)nc1	-2.4	5.2%
COc1ccc(C(=O)N2CCCC(c3cc(C(=O)Nc4ccccc4)no3)C2)cc1 (stereo unspecified)	3.0	-1.9%
CO[C@@H]1CN(C)C(=O)c2ccc(NS(=O)(=O)c3c(C)noc3C)cc2OC[C@@H](C)NC[C@@H]1C	3.2	0.8%
COc1cc(CN2C[C@@H](CO)O[C@@H](n3cnc4c(NCc5ccncc5)ncnc43)C2)cc(OC)c1OC	27.3	0.4%
CSc1ccccc1-c1cnc2cccnn12	3.7	-8.1%
O=C(CC[C@H]1O[C@@H](n2ccc(=O)[nH]c2=O)[C@H](O)[C@@H]1O)N[C@@H](Cc1ccccc1)C(=O)NCC1CCCO1 (stereo partly specified)	11.3	-0.1%
CC1(C(=O)NS(=O)(=O)c2cccc(C#N)c2)CCN1C(=O)CC1CCCC1 (stereo unspecified)	8.8	1.5%
Cc1csc(NC(=O)C2(C)CCN2C(=O)C(C)C)c1C#N (stereo unspecified)	8.8	1.1%
Cc1csc(-c2ccc3cc(Cl)cc(Cl)c3n2)n1	8.4	?
CCc1nc2ccc(C(=O)N3CCN(C(=O)c4ccco4)CC3)cn2c1N(C)C(=O)c1cccc(OC)c1	-9.9	-1.4%
CCc1nc2ccc(C(=O)N(CC)CCN(C)C)cn2c1N(C)Cc1ccc(OC)cc1	1.8	0.5%
O=C(Nc1nc([C@@H]2O[C@H](CO)[C@@H](O)[C@H](O)[C@H]2O)cs1)NC(c1ccccc1)c1ccccc1	3.2	-1.0%
Fc1ccccc1N1CCN(C(c2ccnc3ccccc23)c2nnnn2-c2ccc3c(c2)OCCO3)CC1 (stereo unspecified)	-1.7	0.4%

Profiles from above.
O=C1NC[C@@H](CCCCN2C[C@H](Cc3ccc(O)cc3)N(CCc3ccccc3)C(=O)C2=O)N(CC2CCCCC2)C1=O is listed with CtBP-E1A inh: 5.1; ClpP mod: -1.4%
CCc1nc2ccc(C(=O)N(CC)CCN(C)C)cn2c1N(C)Cc1ccc(OC)cc1 is listed with CtBP-E1A inh: 1.8; ClpP mod: 0.5%
c1ccc(CCNc2ccc3ncc(-c4cccc5ccccc45)n3n2)nc1 is listed with CtBP-E1A inh: -2.4; ClpP mod: 5.2%

Next results
SMILES	CtBP-E1A inh	ClpP mod
O=C(NC(c1ccc(Cl)cc1)c1ccsc1)C1CCN(CCOc2ccc(Cl)cc2)CC1 (stereo unspecified)	-1.1	1.7%
c1cn2c(-c3ccoc3)cncc2n1	2.8	4.9%
O=C(Cn1nnc(-c2ccccc2)c1COc1ccc2ccccc2c1)NCC1CC1	-2.8	-6.2%
COc1cccc(CNc2nc3cc(-c4ccc(C)cc4)sc3c(=O)n2C)c1OC	6.4	?
COc1cc(C(O)c2nc(-c3cnn(C)c3)cs2)ccc1F (stereo unspecified)	1.0	-2.2%
CS(=O)(=O)N1CCCCC1c1cc(C(=O)NCc2ccc(F)cc2)no1 (stereo unspecified)	5.5	-0.1%
Cc1cccc(CN2CCN(C3CN(Cc4cn(Cc5cccc(Cl)c5)nn4)S(=O)(=O)C3)CC2)c1 (stereo unspecified)	0.0	-1.0%
CCN1CCC(C(=O)NC(c2ccc(F)cc2)c2ncccc2C)CC1 (stereo unspecified)	-16.1	-4.0%
CC(C)C(=O)N1CCCC1(C)C(=O)Nc1cccc(Oc2ccccc2)c1 (stereo unspecified)	-0.5	0.0%
CCOC(=O)C1CCCN(C(=O)c2ccc(-c3ccccc3)cc2)CC1 (stereo unspecified)	4.8	2.2%
CCCNC(=O)c1cc2c(c(-c3cccc(-c4ccc(F)cc4)c3)n1)[C@H](CCO)N(S(=O)C(C)(C)C)C2 (stereo partly specified)	-4.5	1.3%
CCCCCNC(=O)C(c1ccc(OC)cc1)n1c(=O)c(-c2ccccc2)nc2ccccc21 (stereo unspecified)	0.0	?
CCCNC(=O)C1(C)CCCN(Cc2ccc(-c3ccccc3)o2)C1 (stereo unspecified)	6.3	1.5%
CC(c1nc2ccccc2[nH]1)N(C(=O)Cc1csc2ccccc12)c1cccnc1 (stereo unspecified)	-11.1	0.5%

The list is partial. The share of hits here may be higher or lower than overall.
